Screening data as filed in PubChem BioAssay.
RN4220 kill = kills Staphylococcus aureus RN4220; hit rate 0.33% among 330,000; AID 1259311; inhibition, % (no concentration beside the values); S. aureus RN4220 growth, OD600, 16 h;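 active means z-score of -3 or lower and OD600 up to 0.18 on both plates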;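 further: plate controls were untreated cells for no effect and reference antibiotic for full effect; stock transfer was 100 nL into about 80 µL; one replicate is shown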
Mtb hypoxia inh = inhibitors of hypoxia-regulated fluorescent reporter in Mycobacterium tuberculosis; M. tuberculosis hypoxia-regulated fluorescent reporter, fluorescence; fluorescence inhibition, % (test concentration not listed); hit rate 0.1% among 300,000; AID 1159583;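 active means 35 to 45% if threefold the growth effect, above 45% if 1.5-fold the growth effect; inactive means the rest, general growth blockers included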;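 further: wells of about 50 µL received 100 nL stock; 0% = vehicle wells and 100% = reference inhibitor wells; whole bacteria with a GFP reporter of the hypoxia response; strong numbers were not always called active; many hits fall short of the cut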
PrP UTR inh = suppresses PrP 5' UTR mRNA reporter expression; hit rate 0.35% among 340,000; inhibition, % (concentration not given with the values); cell-based PrP 5' UTR mRNA reporter, plate reader;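 active means every replicate at 50% or more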;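 further: 0 = median of the neutral control wells; tested in H4 reporter cells; numbers are from one replicate; inactives centre near -14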
Autofluor counter = counter-screen for toxin protease inhibitors: compound fluorescence. compound autofluorescence counterscreen, microsphere flow cytometry; stronger effect = higher value. hit rate 3.1% among 360,000. fluorescence intensity (no concentration beside the values). AID 624483;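 active means at least 3 SD above the mean of all compounds, about 16000 in these data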;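 further: 100 nL of 1 mM stock went into each well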
ugtP null kill = kills S. aureus RN4220 lacking UgtP. growth inhibition, % (test concentration not listed). hit rate 0.54% among 330,000. AID 1259309. S. aureus RN4220 ugtP deletion, OD600 growth, 16 h; some inactives read as strong as hits;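 active means z-score under -3 and OD600 up to 0.15 on both plates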;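 further: plate controls were untreated wells for no effect and antibiotic for full effect; wells of about 80 µL received 100 nL stock; the first replicate is given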
BJeLR lethal = BJeLR cell viability loss | BJeLR (HRASV12) viability, CellTiter-Glo ATP luminescence, 48 h; reference of the scale not given here | inhibition, % (concentration not given with the values) | hit rate 0.17% among 300,000 | AID 1554;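 active means replicate mean above 50%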;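 further: 50 nL library stock added to about 25 µL; numbers are from one replicate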
Mtb hypoxia inh growth = further read-out of Mtb hypoxia inh, marked with its call; growth inhibition, %; measured here: M. tuberculosis growth (absorbance);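 0% = vehicle and 100% = reference antibiotic; read after six days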
An asterisk follows results filed as active; / = no result given; & = joins results of further samples.

Order of values – RN4220 kill, Mtb hypoxia inh, Mtb hypoxia inh growth, PrP UTR inh, Autofluor counter, ugtP null kill, BJeLR lethal
1	CCCCOc1ccccc1C(=O)N(Cc1ccc(C)o1)C1CCS(=O)(=O)C1 (centres undefined)
→ 3.9, -1, -1, -22, 5482, 0, -14
2	O=C(N/N=C/c1cc([N+](=O)[O-])c(N2CCOCC2)cc1N1CCOCC1)c1cccnc1
→ /, /, /, -21, 4912, /, 0
3	COc1cccc(/C=C(/C(=O)OCC(=O)NCC2CCCO2)c2ccccc2)c1 (centres undefined)
→ /, /, /, 1, 2400, /, 5
4	O=C(Oc1ccccc1)c1cccc2cccc(C(=O)Oc3ccccc3)c12
→ -11, 9, -6, /, /, 39, 12
5	O=C1CCC(c2ccccc2)(c2ccccc2)CC1
→ 3.3, 14, 15, -41, 3843, 3, -5
6	O=C(Nc1cccc(F)c1)Nc1ccc2c(c1)C(=O)OC2
→ 5.6, -6, 8, -20, 3674, 11, 3
7	Cc1ccccc1-c1nc(CS(=O)CC(=O)NCc2ccc3c(c2)OCO3)c(C)o1 (centres undefined)
→ -2.6, 2, 10, -14, 5672, -7, -5
8	COc1cccc(-n2c(=S)[nH]c3c(oc4ccccc43)c2=O)c1
→ 4.8, 3, 8, -5, 5883, 4, 1
9	Cc1ccccc1C(=O)NC1CCN(CC(=O)Nc2ccc(N(C)C)cc2)CC1
→ 3.0, -1, -2, -5, 3397, 3, 1
10	CC(=O)Nc1cccc(N=NN2CCOCC2)c1
→ 2.1, 8, -3, -5, 4124, 5, -5
11	CCc1nc2ccc(C(=O)N3CCN(c4ccccc4F)CC3)cc2nc1CC
→ 1.3, 6, -4, -25, 5987, 0, -2
12	CCOC(=O)C1=C(C)OC(N)=C(C#N)C1c1ccc(OC)c(CSc2ccccn2)c1 (centres undefined)
→ 8.9, 14, 6, -12, 2623, -3, 3
13	O=C1CCCCCN1C(=O)c1ccc(C(=O)N2CCCCCC2=O)cc1
→ 0.9, /, /, -17, 4219, 4, 7
14	CC(C)n1c(C(=O)OCC(=O)NCc2ccc3c(c2)OCO3)cc2sccc21
→ -5.2, 3, 4, -19, 11111, 5, -1
15	CC(=O)Nc1cccc(/C(C)=N/NC(=O)c2cccs2)c1
→ /, /, /, -10, 2224, /, 0
16	COc1ccccc1CNC(=O)c1cc(C(C)=O)c[nH]1
→ 7.9, 10, 11, -11, 3348, 7, -8
17	Cc1cc(Cl)cc(C)c1OCCOCCNCc1ccccc1
→ -0.1, 15, 9, -14, 3451, -2, -1
18	CCc1noc(C)c1C(=O)OCC(=O)Nc1nc(-c2ccc(F)c(F)c2)cs1
→ 32, 6, -1, -9, 4181, 3, /
19	Cc1ccc(-n2c(=O)c3sccc3n(CC(=O)NCc3ccco3)c2=O)cc1
→ 5.1, 2, -2, -17, 8193, 6, -8
20	COCCCNCCCCOc1c(Cl)cc(C)cc1Br
→ 3.2, 13, 14, -6, 22891*, -7, 1
21	CC(C)(C)c1ccc(OCc2ccc(C(=O)NCc3cccnc3)o2)cc1
→ -2.5, -8, -13, -63, 2170, -17, -4
22	CCN1C(=O)N[C@H](c2ccc(Br)cc2)C(C(=O)OC)=C1C
→ /, /, /, 1, 4348, /, -1
23	NS(=O)(=O)c1cc(C(=O)N2CCc3ccccc32)c(Cl)cc1Cl
→ 0.0, 1, 13, -18, 18762*, 0, 5
24	CC1=NN(c2ccc(Cl)cc2)C(=O)C1C(c1ccccc1O)c1c(C)[nH]n(-c2ccc(Cl)cc2)c1=O (centres undefined)
→ 8.9, 4, -4, -5, 2440, -2, 8
25	O=C(O)c1ccc2c(c1)c1c3n2CCNC3CCC1 (centres undefined)
→ 2.5, 11, 1, -32, 3890, 12, 2
26	COc1ccc(OC)c(-c2cc(C(=O)N/N=C/c3cc(OC)c(OC)cc3OC)c3ccccc3n2)c1
→ /, /, /, 5, 4174, /, -4
27	CC(C(=O)N1CCN(Cc2ccc3c(c2)OCO3)CC1)n1cc([N+](=O)[O-])cn1 (centres undefined)
→ 3.9, 16, 0, -28, 4026, -6, 0
28	CC(=O)Nc1ccc(NC(=O)c2ccc3c(c2)CCN3S(C)(=O)=O)cc1
→ 0.2, 4, -9, -22, 2837, 5, -5
29	COc1ccccc1C(=O)NC(=O)COC(=O)c1oc2ccccc2c1C
→ 4.3, 9, 0, -18, 3557, 1, /
30	CC(=O)c1c(C)[nH]c(C(=O)COC(=O)c2ccc(C)s2)c1C
→ 4.5, 10, 3, -52, 4308, 2, /
31	COCCCNC(=O)CC1Oc2ccccc2NC1=O (centres undefined)
→ 0.9, /, /, 8, 5706, 4, 1
32	CN(/N=C/c1ccc(N(C)C)cc1)C1=NS(=O)(=O)c2ccccc21
→ /, /, /, -33, 4256, /, 31
33	Cc1ccc(NC(=O)c2cnn(-c3ccccc3)c2NC(=O)c2ccco2)cc1C
→ -2.2, /, /, -9, 3698, 6, -5
34	O=C(CN1CCN(Cc2ccccc2)CC1)NN=C/C=C\c1ccco1
→ 6.5, -2, -2, /, /, 14, /
35	O=C(O)C1CC=CCC1C(=O)NCc1cn2ccccc2n1 (centres undefined)
→ -13, 5, 15, -6, 4863, -7, 5
36	O=C(N/N=C/c1ccncc1)c1ccc(-n2cccc2)cc1
→ /, /, /, -6, 10015, /, 11
37	CN(Cc1ccccc1)C(=O)c1cccc(NC(=O)Cc2ccc(NC(=O)C3CCN(C(=O)CCc4ccccc4)CC3)cc2)c1
→ 4.6, -8, 5, -26, 3326, -2, /
38	CC(=O)C[C@@H](O)CC(=O)[C@@H]1OC(=O)[C@@H](C)CCCCc2ccccc21
→ 7.6, -1, 4, -11, 3418, 6, /
39	Cc1cccc(C)c1NC(=S)N/N=C1\CC2CC=CC12 (centres undefined)
→ /, /, /, -18, 4623, /, 3
40	Cc1ccc(S(=O)(=O)c2nnn(-c3cccc(F)c3)c2N)cc1
→ 6.5, 4, 14, 2, 4510, 1, 6
41	COC(=O)c1ccc(Oc2cc(C)nc(NCc3ccccc3)n2)cc1
→ -0.9, /, /, -9, 4465, -1, 6
42	O=C(Nc1ccc(N2CCOCC2)cc1)c1ccccc1SCC(=O)N1CCCC1
→ 6.6, -3, 2, -57, 3841, -3, 0
43	COc1ccccc1OCc1nc(C#N)c(N2CCC(C(N)=O)CC2)o1
→ -1.4, /, /, -10, 4206, 8, 4
44	COc1cc(/C=C/C(=O)OCC(=O)NCC(=O)Nc2cccc(C)c2C)ccc1OC(F)F
→ -1.1, 10, 2, 1, 3720, 30, /
45	CCn1nnnc1-c1ccc(OC)c(S(=O)(=O)Nc2ccc(S(N)(=O)=O)cc2)c1
→ 0.8, 11, 10, 8, 4163, 2, -14

Along the list, as entered above:
PrP UTR inh for nos. 36–43 → -6, -26, -11, -18, 2, -9, -57, -10
BJeLR lethal for nos. 36–43 → 11, /, /, 3, 6, 6, 0, 4

(further entries)
Order of values – RN4220 kill, Mtb hypoxia inh, Mtb hypoxia inh growth, PrP UTR inh, Autofluor counter, ugtP null kill, BJeLR lethal
46	O=C(COC(=O)c1cc(S(=O)(=O)N2CCCC2)ccc1O)Nc1ccc(SC(F)F)cc1
→ 5.4, 15, 2, -22, 7061, 3, /
47	Cc1ccccc1CN1C(=O)c2ccccc2Sc2ccc(C(=O)O)cc21
→ 25, 10, 13, 0, 4816, 7, 7
48	CS/C(=N\S(=O)(=O)c1cccs1)Nc1ccc(F)cc1
→ 1.1, 4, 10, -20, 1979, 4, -1
49	O=C(N/N=C/c1ccc(N2CCOCC2)o1)c1ccccc1[N+](=O)[O-]
→ /, /, /, -6, 2343, /, 22
50	O=C(NCc1nc2ccccc2[nH]1)C1=CC(c2ccccc2)CC(OCCCCO)O1 (centres undefined)
→ 0.8&-4.1, 1&-9, 9&-2, /, /, 2&-3, /
51	CNCCCOc1ccc(Cl)cc1C(C)(C)C
→ -12, 8, -2, -17, 4201, -33, 7
52	COc1cc(C(=O)O)ccc1OCC(=O)N1CCOCC1
→ -21, /, /, -9, 3250, 0, -2
53	O=C(Cn1ncc2c3ccccc3n(Cc3ccccc3)c2c1=O)N1CCN(c2ccccn2)CC1
→ 7.1, 7, 5, 2, 5156, 10, -14
54	Cc1ccccc1-c1nc2sc(C)c(C)c2c(=O)o1
→ -1.7, -3, 14, -21, 4063, -6, -11
55	Cc1nc(NC(N)=NS(=O)(=O)c2ccc([N+](=O)[O-])cc2)nc2ccccc12
→ 3.3, 17, 4, /, /, -4, /
56	CCN(CC1CCCN(CCc2cccc(F)c2)C1)C(=O)c1cc(C)oc1C (centres undefined)
→ -1.0, 3, -6, -6, 7081, 5, -7
57	O=C(NN=Cc1ccc[nH]1)c1cccc(Br)c1
→ 0.7, 4, 10, /, /, 3, /
58	COc1ccc(S(=O)(=O)Nc2ccc3oc(C)c(C(=O)O)c3c2)cc1
→ 5.1, /, /, -6, 6496, -5, 2
59	COC(=O)c1cc(S(=O)(=O)N2CCN(c3cccc(Cl)c3)CC2)c[nH]1
→ 10, 3, -2, -12, 6389, 12, 7
60	COc1ccccc1C(=O)Nc1cc(Cl)ccc1-n1cncn1
→ 0.8, 14, 0, -13, 6023, -6, -9
61	CC(C)COC(=O)COc1cc(Cl)c(Cl)cc1Cl
→ 5.4, 12, 7, /, /, 4, /
62	CN1CCN(C(=O)C2CCCN(c3ncnc4c3nc3n4CCCCC3)C2)CC1 (centres undefined)
→ 4.8, 8, 15, -19, 4867, 6, 1
63	Cc1ccc(NC(=S)N(Cc2ccco2)C(C)c2cccs2)c(Cl)c1 (centres undefined)
→ 39, 12, -2, -15, 4501, 7, 16
64	NC(=O)C1CCCN(CCc2ccccc2)C1 (centres undefined)
→ 5.2, 10, 5, -24, 13019, 6, 7
65	CCOC(=O)N1CCC(NC(=O)c2ccccc2C(=O)O)CC1
→ 4.3, 6, 16, -34, 4397, 8, -6
66	Cc1ccc(C(=O)Nc2ccc(Oc3ccc(C(=O)O)c(C(=O)O)c3)cc2)cc1C
→ 3.5, /, /, -21, 3615, 3, 5
67	COc1cccc(CN2CCC(CO)(CC3CCCCO3)CC2)c1 (centres undefined)
→ -1.6, -1, 9, -5, 4334, 2, 2
68	CCc1cc(S(N)(=O)=O)cc(CC)c1NC(C)=O
→ 4.1, 3, 1, -16, 6195, 15, -2
69	CCC1CCC/C1=N\NC(=O)CCC(=O)Nc1ccccc1Cl (centres undefined)
→ /, /, /, -22, 2166, /, 2
70	CC(C)(C)S(=O)N1Cc2cc(=O)n(Cc3ccccc3)c(CCO)c2[C@H]1CCO (some centres undefined)
→ -0.9, -6, 3, 3, 3705, -3, /
71	O=C(Nc1ccccc1C(=O)NCc1cccnc1)c1cccc([N+](=O)[O-])c1
→ 2.6, 6, -1, -21, 2123, -3, -5
72	C=CCSc1nnc(NC(=O)c2ccc(NC(C)=O)cc2)s1
→ 9.3, 1, -1, -15, 5241, -1, 1
73	Nc1ccc(-c2nnn(Cc3ccccc3F)n2)cc1
→ 2.4, 10, -3, -46, 4082, 16, -10
74	C/C(=N/NC(=O)CC1N=C(Cc2ccccc2)NNC1=O)c1cccnc1 (centres undefined)
→ /, /, /, -29, 4218, /, 2
75	CC(NC(=O)C1CCCN(S(=O)(=O)c2cccc3nonc23)C1)c1ccccc1 (centres undefined)
→ 1.9, 5, 6, 14, 9239, 4, -9
76	Cc1ccc(S(=O)(=O)NCc2cccnc2)cc1C(=O)N1CCCC1
→ 2.1, 7, 9, -6, 4909, 8, 3

In the list so far, these have a COOH group.
Order of values – RN4220 kill, Mtb hypoxia inh, Mtb hypoxia inh growth, PrP UTR inh, Autofluor counter, ugtP null kill, BJeLR lethal
25	O=C(O)c1ccc2c(c1)c1c3n2CCNC3CCC1 (centres undefined)
→ 2.5, 11, 1, -32, 3890, 12, 2
35	O=C(O)C1CC=CCC1C(=O)NCc1cn2ccccc2n1 (centres undefined)
→ -13, 5, 15, -6, 4863, -7, 5
47	Cc1ccccc1CN1C(=O)c2ccccc2Sc2ccc(C(=O)O)cc21
→ 25, 10, 13, 0, 4816, 7, 7
52	COc1cc(C(=O)O)ccc1OCC(=O)N1CCOCC1
→ -21, /, /, -9, 3250, 0, -2
58	COc1ccc(S(=O)(=O)Nc2ccc3oc(C)c(C(=O)O)c3c2)cc1
→ 5.1, /, /, -6, 6496, -5, 2
65	CCOC(=O)N1CCC(NC(=O)c2ccccc2C(=O)O)CC1
→ 4.3, 6, 16, -34, 4397, 8, -6
66	Cc1ccc(C(=O)Nc2ccc(Oc3ccc(C(=O)O)c(C(=O)O)c3)cc2)cc1C
→ 3.5, /, /, -21, 3615, 3, 5
